Screens as filed in PubChem.
HSD17B inhib: HSD17B dehydrogenase inhibition; actives 7.6% (n = 75,000); recombinant HSD17B10, NADH fluorescence kinetic; many of its hits are not listed in these tables; Potency, µM (series often up to 57.1 µM), for the others: at the highest dose activity change, negative = inhibition, most hits filed as inhibitors; Q99714; active = well fitted inhibition curve with a large enough effect; inconclusive = small, poorly fitted or top-dose-only effect; inactive = no such curve, though single readings can be large or run the other way;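 also: the protocol describes HADH2 (HSD17B10) and not the HSD17B4 of the title; nearly all actives have a fitted effect of over 70% in size; most hits overshoot -100% by far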
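His-tagged E. coli-expressed HADH2 at 20 nM in 100 mM Tris-HCl pH 9.0 with 0.01 % Tween-20, preincubated 15 min with compound at room temperature. Reaction with 1 mM NAD+ and 90 uM beta-hydroxybutyryl coenzyme A; NADH fluorescence (360/450 nm) read kinetically over 4 min, last minus first point.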
* = called active by the depositor; ? = inconclusive; [ ] = another dose, or the depositor's remark. % is scaled to controls: 0 for no effect and ±100 for the full control effect; potency is read from the fitted curve at half-maximal effect.

SMILES | HSD17B inhib
Cc1nnc2n(c1=O)C(CS(=O)(=O)c1ccccc1)CS2 (stereo not drawn) | -10%
Cc1ccc(Nc2nc(Oc3ccc(OCc4ccccc4)nn3)nc(N3CCOCC3)n2)cc1 | -7%
CCCOc1ccc(CSc2nnc(CCC)n2N)cc1 | 8%
C=CCn1c(CSc2nc3ccccc3s2)nnc1SCC(=O)OCC | -1%
COC(=O)C1=C(N)Oc2cc(C)n(CC3CCCO3)c(=O)c2C1c1ccc(Cl)cc1 (stereo not drawn) | 3%
CC1(C)CC(=O)C=C(NC2CCS(=O)(=O)C2)C1 (stereo not drawn) | 0%
Clc1ccc(CSc2nnc([C@@H]3CCCN3)o2)cc1Cl | -1%
C#CCCCCCCCCCCCc1ccco1 | -7%
COC(=O)c1ccsc1NC(=O)CN1CCN(c2ccc(F)cc2)CC1 | -2%
COc1cccc2cc(C(=O)N3CCC(C)CC3)c(=O)oc12 | -23%
COC(=O)c1ccccc1N(C)C(=O)C12CCC(C)(C(=O)O1)C2(C)C (stereo not drawn) | 7%
O=C(c1ccc(S(=O)(=O)N2CCCC2)cc1)N1CCN(Cc2ccc3c(c2)OCO3)CC1 | 2%
CCCC(C)CO (stereo not drawn) | 0%
O=C(Cc1ccccc1)Nc1ccc(N2CCOCC2)cc1N1CCOCC1 | -1%
CO[C@H]1OC[C@@]2(C)[C@@H]3C4=C(CN2C(=O)OC(C)(C)C)[C@H](C)[C@H](CO)[C@H](CO)[C@H]4CC[C@H]13 | -16%
Cn1cnc([N+](=O)[O-])c1Sc1nnc(-c2cccnc2)n1C | 8%[11.4 µM]
C=CCNS(=O)(=O)c1nc(C)c(Cl)c(C)c1C#N | 2%
C=CCn1c(=O)c2ccccc2n2c(SCC(=O)Nc3cc(C)on3)nnc12 | -5%
COc1cccc(-c2nc(-c3ccc(NC(=O)c4cccnc4)cc3)no2)c1 | 25µM*
CN(/N=C\c1ccccc1O)c1ccc2ccccc2n1 | 3%[11.4 µM]
COc1ccc(OC)c(-n2c(SCC(C)=O)nnc2-c2cccc(S(=O)(=O)N(C)C)c2)c1 | 2%
COc1cccc(-n2nnnc2SCC(=O)NCc2ccc3c(c2)OCO3)c1 | 4%
Cc1ccc2nc(CCc3nc4ccc(C)cc4o3)oc2c1 | 1%
CCOc1ccc(N2C(=O)NC(Cc3c[nH]c4ccccc34)C2=O)cc1 (stereo not drawn) | 0%
O=C(O)C1C2CCC(C2)C1C(=O)Nc1cc(F)ccc1F (stereo not drawn) | 8%
COc1ccc(NC(=O)CSc2nnc(Cc3cccn3C)n2-c2ccc(F)cc2)cc1OC | 3%
COc1ccc(-n2c(=O)cc(N3CCOCC3)[nH]c2=O)cc1 | 11%
COc1ccccc1OCCCn1c(=O)oc2ccc(C)cc21 | -1%
Clc1ccc(CC[C@H](Cn2ccnc2)Sc2c(Cl)cccc2Cl)cc1 | -16%[25.6 µM]
CC(=O)N1CCN(S(=O)(=O)c2ccc(S(=O)(=O)NCC(C)C)cc2)CC1 | 6%
COc1ccc(N(C)C(=O)Nc2ccc3c(c2)nnn3C)cc1 | 20µM*
Cc1nc(=O)c(-c2ccccc2)c(C)n1-c1cccc(C(=O)O)c1 | -9%
COc1cc(NC(=O)c2ccco2)c(OC)cc1NC(=O)Nc1cccc(Cl)c1 | 25µM*
CCOc1ccc2nc(NC(=O)C3CCCN(S(=O)(=O)c4cccs4)C3)sc2c1 (stereo not drawn) | -14%
Cn1c(C(=O)NCC2CCCO2)cc2c(=O)[nH]c3ccccc3c21 (stereo not drawn) | 20µM*
S=C1SCN(C2CCCCCCCCCCC2)CN1C1CCCCCCCCCCC1 | 4%[11.4 µM]
COc1ccccc1N1CCN(C(=O)CSc2nc3ccccc3c(=O)n2CC2CCCO2)CC1 (stereo not drawn) | 11%
Cc1ccc(Cl)cc1N1CCN(C(=O)C2CCC(=O)N2C(C)C)CC1 (stereo not drawn) | 7%
CC1CSc2nnc(CCc3ccccc3)n21 (stereo not drawn) | -1%
COc1ccc(C2(C(=O)NCCCN3CCOCC3)CCOCC2)cc1 | 11%
FC(F)(F)c1ccccc1-c1nc(-n2ccnc2)c2ccccc2n1 | -1%
COc1cccc(NC(=O)Cn2cnc3sc(C)c(S(=O)(=O)N4CCN(C)CC4)c3c2=O)c1 | 1%
CCn1c(SC/C=C/c2ccccc2)nnc1-c1cccs1 | 25µM*
Cn1c(COc2ccccc2)nnc1SCc1cc(=O)[nH]c2ccccc12 | -1%
CC(=O)Nc1ccccc1C(=O)N1CCc2ccccc21 | 14%
COc1ccc(C(CNC(=O)COc2ccccc2C#N)N2CCOCC2)cc1 (stereo not drawn) | 8%
Cc1nc2cnc(N3CCOCC3)nc2n(CCC#N)c1=O | ?
Cc1ccc(C)c2[nH]c(=O)c(C(c3nnnn3C3CCCC3)N3CCOCC3)cc12 (stereo not drawn) | 32µM*
CCn1c(SCC(=O)Nc2nc(C)c(C)s2)nnc1-c1cccnc1 | 3%
CC1CCCCC1NS(=O)(=O)c1ccc(-n2cnnn2)cc1 (stereo not drawn) | 2%
Cn1c(Cc2ccccc2)nnc1SCC(=O)N1CCN(c2ccccc2)CC1 | 32µM*
CN1CCN(CCCNC(=O)c2cc3c(=O)n(C)c4ccccc4c3s2)CC1 | 25µM*
COc1cc(OC)c(C2N(C)c3ccccc3N2C)cc1OC | 1%
CCCNC(=O)Cn1cccc1C(=O)c1ccccc1 | 0%
Clc1ccc2nc(CN3CCCc4ccccc43)cn2c1 | -8%
COc1ccc(CNC(=O)C2CCN(S(=O)(=O)c3c(C)n[nH]c3C)CC2)cc1 | 10%
O=C(c1ccccc1)c1coc2ccc(O)c(CN3CCOCC3)c12 | -12%
COC(=O)c1[nH]c2ccc(Cl)cc2c1NC(=O)CN1CCC(C(N)=O)CC1 | ?
COc1ccc(C(=O)Nc2nc(-c3cccs3)cs2)cc1 | -16%
NC(=O)c1ccc(C2SCC(=O)N2Cc2ccccc2)cc1 (stereo not drawn) | -1%
Going on with the list.
SMILES | HSD17B inhib
O=S(=O)(Nc1ccc2c(c1)nc1n2CCN(Cc2ccccc2)C1)c1ccc(F)cc1 | ?
Cc1ccc(C)c(N(C(=O)CCC(=O)Nc2cc(C)on2)C(C(=O)NC2CCCC2)c2ccco2)c1 (stereo not drawn) | 6%
CCSc1nnc(NC(=O)c2csc(C)c2)s1 | ?
COc1ccc(C(=O)C(CO)Oc2ccccc2OC)cc1OC (stereo not drawn) | -2%
CN1CCc2cc(Cl)c(O)cc2[C@H](c2ccccc2)C1 | 3%
COC(=O)COc1ccc(S(=O)(=O)NCC2CCCO2)cc1Cl (stereo not drawn) | 3%
Cn1c(=O)c2c(nc(NCCCO)n2C/C=C/c2ccccc2)n(C)c1=O | 0%
COc1ccc(-c2nc(C#N)c(N3CC(C)OC(C)C3)o2)cc1OC (stereo not drawn) | 3.2µM*
CCCS(=O)(=O)N1CCN(Cc2ccccc2C(F)(F)F)CC1 | 12%
CCCCNC(=O)C1C2C=CC3(CN(Cc4ccccc4Cl)C(=O)C13)O2 (stereo not drawn) | 12%
CCc1cc2c(=O)[nH]cnc2s1 | -3%
O=c1cc(-c2ccccc2Cl)c2c([nH]1)CCC2 | ?
Cc1ccc2oc(=O)cc(CN3CCC(C)CC3)c2c1 | -2%
O=C(C1CCN(Cc2cc(Cl)ccc2O)CC1)N1CCN(Cc2ccccc2)CC1 | 5%
COc1ccccc1-n1c(SCC(=O)N2CCCCC2)nc2cccnc21 | -7%
COc1cccc(C2CC(C(F)(F)F)n3ncc(C(=O)NCC4CCCO4)c3N2)c1 (stereo not drawn) | 1%
COc1ccc(CNC(=O)C2C3C=CC4(CN(Cc5cccnc5)C(=O)C24)O3)cc1 (stereo not drawn) | -4%
Cc1c(N=Cc2nc3ccccc3n2C)c(=O)n(-c2ccccc2)n1C | 3%
Cc1ccc(-c2nnc(SCC(=O)N3CCN(c4ccccc4)CC3)o2)cc1 | 2%
CCOC(=O)CN1C(=O)C(=O)c2cccc(C)c21 | -12%
COc1ccc([C@@H]2CC(=O)c3c(O)cc(O)cc3O2)cc1O | 2%
CCOC(=O)Cn1cnc2c(nnn2-c2ccc(OC)cc2)c1=O | -4%
O=C(O)CSc1nnc(CNc2ccccc2Cl)n1-c1ccccc1 | 3%
CN1CCc2c(sc(NC(=O)c3ccc(S(=O)(=O)N4CCOCC4)cc3)c2C(N)=O)C1 | -15%

Compounds listed so far with a thiophene ring, fused or not (nine):
SMILES | HSD17B inhib
COC(=O)c1ccsc1NC(=O)CN1CCN(c2ccc(F)cc2)CC1 | -2%
CCOc1ccc2nc(NC(=O)C3CCCN(S(=O)(=O)c4cccs4)C3)sc2c1 (stereo not drawn) | -14%
COc1cccc(NC(=O)Cn2cnc3sc(C)c(S(=O)(=O)N4CCN(C)CC4)c3c2=O)c1 | 1%
CCn1c(SC/C=C/c2ccccc2)nnc1-c1cccs1 | 25µM*
CN1CCN(CCCNC(=O)c2cc3c(=O)n(C)c4ccccc4c3s2)CC1 | 25µM*
COc1ccc(C(=O)Nc2nc(-c3cccs3)cs2)cc1 | -16%
CCSc1nnc(NC(=O)c2csc(C)c2)s1 | ?
CCc1cc2c(=O)[nH]cnc2s1 | -3%
CN1CCc2c(sc(NC(=O)c3ccc(S(=O)(=O)N4CCOCC4)cc3)c2C(N)=O)C1 | -15%

(next part)
SMILES | HSD17B inhib
CCc1cccc(NC(=O)C2CCCC2)c1 | 9%
CC(C)Cc1cc(C(=O)N2CCN(c3ccc(F)cc3)CC2)no1 | -5%
COc1ccc(-c2nn(-c3ccccc3)cc2CO)cc1OC | 25µM*
CC(C)(C)OC(=O)N1CCCC1C(=O)N1CCc2ccccc21 (stereo not drawn) | -3%
N=C1[C@@H](O)[C@]2(I)c3ccccc3N3C(=N)[C@H](O)[C@@H]4c5ccccc5N1[C@@H]4[C@@H]32 | 3.2µM*
Cc1ccc(C2N(c3cccc(Cl)c3)C(=O)C3CCCN32)o1 (stereo not drawn) | 5%
Cc1ccc(Nc2nc(N3CCOCC3)nc(N3CCOCC3)n2)cc1 | -5%
O=C1OCCC1Sc1nc2ccccc2n1-c1ccccc1 (stereo not drawn) | -2%
CCN(CC(=O)Nc1ccccc1OC)C(=O)C1CC2C=CC1C2 (stereo not drawn) | -4%
O=C(CN1CCN(Cc2ccc3c(c2)OCO3)CC1)N1CCc2[nH]c3ccc(F)cc3c2C1 | 6%
c1ccc(-c2noc(C3CCCCC3)n2)nc1 | -6%
COc1cc(C2=NOC(C(=O)N3CCN(c4ccc(F)cc4)CC3)C2)cc(OC)c1OC (stereo not drawn) | -5%
CN1CCN(c2nc3nonc3nc2N2CCN(C)CC2)CC1 | 4%
COc1cccc(C2CC(c3ccccc3Cl)n3ncnc3N2)c1 (stereo not drawn) | 0%
CCc1cccc(NC(=O)CCc2nc(-c3cccs3)no2)c1 | -8%
CC1(C)OC(C(O)(c2cc(F)c(F)c(F)c2)c2cc(F)c(F)c(F)c2)C(C(O)(c2cc(F)c(F)c(F)c2)c2cc(F)c(F)c(F)c2)O1 (stereo not drawn) | -15%[11.4 µM]
CCOC(=O)N1CCN(C(=O)C2c3cc(OC)c(OC)cc3C(=O)N3CCc4ccccc4C23)CC1 (stereo not drawn) | -7%
Cc1ccc(S(=O)(=O)C(C#N)c2nc3ccccc3nc2N2CC(C)OC(C)C2)cc1C (stereo not drawn) | ?
COC(=O)c1ccccc1NC(=O)CN1CCC(n2nnc3cc(C)ccc32)CC1 | 4%
Cc1cc(C)n(CCOc2ccc(Cl)cc2Cl)n1 | -4%
COc1ccc(OC)c(S(=O)(=O)N2C(C)CCCC2C)c1 (stereo not drawn) | 0%
COc1cccc(-c2noc(CCC(=O)Nc3cccnc3)n2)c1 | 3%
COc1ccc(N2CCN(C(=O)c3ccc(-n4nc(C)cc4C)cc3)CC2)cc1 | 11%
CCOc1cc(C(=O)Nc2cc(C)on2)cc(OCC)c1OCC | 3%

Reprinted from above, 5 compounds:
SMILES | HSD17B inhib
CN1CCN(c2nc3nonc3nc2N2CCN(C)CC2)CC1 | 4%
COc1cccc(C2CC(c3ccccc3Cl)n3ncnc3N2)c1 (stereo not drawn) | 0%
CCc1cccc(NC(=O)CCc2nc(-c3cccs3)no2)c1 | -8%
CC1(C)OC(C(O)(c2cc(F)c(F)c(F)c2)c2cc(F)c(F)c(F)c2)C(C(O)(c2cc(F)c(F)c(F)c2)c2cc(F)c(F)c(F)c2)O1 (stereo not drawn) | -15%[11.4 µM]
CCOC(=O)N1CCN(C(=O)C2c3cc(OC)c(OC)cc3C(=O)N3CCc4ccccc4C23)CC1 (stereo not drawn) | -7%

Next section
SMILES | HSD17B inhib
Cn1c(=O)c2c(nc(CN3CCN(c4ccccc4)CC3)n2CCc2ccccc2)n(C)c1=O | 2%
COc1cccc(-c2nnc(NC(=O)c3ccc(S(=O)(=O)N4CC(C)OC(C)C4)cc3)o2)c1 (stereo not drawn) | -7%
CN(Cc1ccco1)C(=O)C1CCC(=O)N1Cc1ccc(F)cc1 (stereo not drawn) | 3%
CCCCSc1nc(C)c(CC(=O)OC)c(=O)[nH]1 | 7%
CC1Cc2ccccc2N1C(=O)CSc1nc2ccccc2n1CC(=O)N1CCOCC1 (stereo not drawn) | 7%
COc1ccc(C2C(C(=O)N3CCOCC3)CCC(=O)N2c2cc(OC)c(OC)c(OC)c2)cc1 (stereo not drawn) | 12%
CC(C)C(NS(=O)(=O)c1cccs1)C(=O)NCCN1CCN(c2ccccc2)CC1 (stereo not drawn) | 4%
COc1ccc2cc(CN(CCc3ccccc3)Cc3nnnn3Cc3ccco3)c(=O)[nH]c2c1 | ?
COc1ccc(-c2ccc(SCC(=O)N3CCOCC3)nn2)cc1 | -9%
COC(=O)c1cc(=O)nc2sc(-c3cccs3)nn12 | 25µM*
CCn1nc(C(=O)OCc2c(C)noc2C)c2ccccc2c1=O | -8%
Cc1n[nH]c2ccccc2c1=O | 7%[11.4 µM]
CCOC(=O)C1CCN(Cc2nc(-c3ccc(OC)c(OC)c3)no2)CC1 | 5%

This is a subset; rates above refer to the full screens.
